Screening data (PubChem BioAssay)
hNpr1 antagonist: human Npr1 receptor antagonism; HEK293 hNpr1 GloSensor cGMP, ANP-stimulated luminescence; P16066; Potency, µM (titrated, usually from 46.3 µM), inactives show at the top dose activity change, negative = inhibition, most hits filed as inhibitors; hit rate 1.6% among 76,000; active = well fitted inhibition curve with a large enough effect; inconclusive = small, poorly fitted or top-dose-only effect; inactive = no such curve, though single readings can be large or run the other way;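 note: nearly all actives have a fitted effect of over 60% in size; nearly all hits also lower the signal before the agonist is added; a reference antagonist and vehicle were the controls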
Target sequence (P16066 whole entry, looked up): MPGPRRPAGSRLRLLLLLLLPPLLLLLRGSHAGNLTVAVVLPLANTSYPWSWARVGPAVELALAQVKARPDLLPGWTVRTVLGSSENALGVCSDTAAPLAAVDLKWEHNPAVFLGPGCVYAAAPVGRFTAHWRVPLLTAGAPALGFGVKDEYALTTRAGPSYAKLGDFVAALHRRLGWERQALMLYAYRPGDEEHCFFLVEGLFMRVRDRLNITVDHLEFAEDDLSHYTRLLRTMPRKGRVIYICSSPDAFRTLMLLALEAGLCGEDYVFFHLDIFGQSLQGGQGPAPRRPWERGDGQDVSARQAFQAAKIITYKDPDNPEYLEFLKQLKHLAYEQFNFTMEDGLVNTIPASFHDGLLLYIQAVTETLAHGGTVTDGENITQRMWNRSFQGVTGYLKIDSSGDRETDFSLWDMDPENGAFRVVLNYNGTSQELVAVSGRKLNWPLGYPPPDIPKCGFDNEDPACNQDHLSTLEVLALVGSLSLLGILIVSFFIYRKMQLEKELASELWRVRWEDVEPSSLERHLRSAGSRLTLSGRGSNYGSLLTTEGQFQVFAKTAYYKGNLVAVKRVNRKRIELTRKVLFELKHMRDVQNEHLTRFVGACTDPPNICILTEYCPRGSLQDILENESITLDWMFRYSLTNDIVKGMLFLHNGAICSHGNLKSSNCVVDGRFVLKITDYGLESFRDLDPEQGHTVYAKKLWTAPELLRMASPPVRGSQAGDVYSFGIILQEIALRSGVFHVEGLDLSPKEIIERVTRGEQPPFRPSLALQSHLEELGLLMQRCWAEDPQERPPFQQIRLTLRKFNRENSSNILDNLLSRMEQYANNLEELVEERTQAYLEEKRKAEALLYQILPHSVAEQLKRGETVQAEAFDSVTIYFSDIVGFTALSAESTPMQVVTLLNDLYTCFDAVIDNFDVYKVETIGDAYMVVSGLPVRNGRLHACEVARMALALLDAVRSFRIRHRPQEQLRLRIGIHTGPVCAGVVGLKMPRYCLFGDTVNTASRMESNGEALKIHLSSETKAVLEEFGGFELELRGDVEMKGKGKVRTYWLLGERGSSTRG
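Compound pre-incubated 30 min at room temperature on GloSensor-loaded HEK293 cells stably carrying hNpr1 and the pGS-40F cGMP biosensor. Stimulation uses hNppA at 0.1 nM final; luminescence is taken at baseline and 20 min post-agonist.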
* marks the source's active call; other numbers are inactive results; u = inconclusive; [ ] = dose if it differs, or a comment. % is set by controls: 0 for no effect and ±100 for the full control effect; potency is the fitted concentration of half-maximal effect.

SMILES	hNpr1 antagonist
CC(C)(C)CC(=O)NC[C@H]1OC[C@@H](NC2CCC(F)(F)CC2)[C@@H]1O	-0.5%[70.6 µM]
O=C(CCn1nnc(-c2ccccc2)n1)N1CCCC2(CCNCC2)CC1	-6.0%
Cc1cc(C(F)(F)F)nc(CCNC(=O)C2CC3(CCNCC3)CN2)n1 (stereo not drawn)	-3.8%
c1cncc(CN2CCOC[C@H]2c2ncc(-c3cccnc3)[nH]2)c1	6.8%[70.6 µM]
COc1ccc([C@H]2C[C@@H](O)[C@@H](O)[C@@H]2NCc2cccc(C(F)(F)F)c2)cc1	-4.7%[70.6 µM]
O=C1NCCCCCCN(Cc2ccncc2)[C@@H]2CN(Cc3ccccn3)CC[C@H]12	4.3%
COc1ccc(NC(=O)C2=NO[C@@H]3CN(c4ccccc4)C[C@H]23)cn1	0.3%[70.6 µM]
COCCOCc1nc(C2CCN(C(=O)Nc3cccc(Cl)c3)CC2)no1	-0.5%
O=C(Nc1cccc(C(F)(F)F)c1)N[C@H]1[C@H](O)[C@@H](N2CCCC2)[C@@H]2OC[C@H]1O2	-17.5%[70.6 µM]
O=c1c2c(CO)c(-c3ccc(F)cc3)nn2ccn1Cc1cc(=O)n2ccccc2n1	-2.2%
CS(=O)(=O)N(Cc1cccnc1)C1CN(C(=O)c2ccc3[nH]ccc3c2)C1	-0.2%
CNCCN1C(=O)CC[C@H]2CN(C(=O)C3(COC)CCC3)CC[C@H]21	0.9%
Cc1cc(C(=O)NCC2(COc3cccnc3)C[C@@H](O)[C@@H](O)C2)n(C)n1 (stereo partly drawn)	0.5%[70.6 µM]
O=C(NC1CCCc2c1[nH]c1ccc(F)cc21)C1(c2ccccc2)CCOCC1 (stereo not drawn)	-2.9%
COc1ccc2[nH]c3c(c2c1)CCNC31CCN(C2CCCC2)CC1	-6.5%
CCc1cccc2c(C(CC(=O)NCC(C)C)c3cccc(OC)c3)c[nH]c12 (stereo not drawn)	0.0%
CCOc1ccccc1CNC(=O)CC1CCOCC1	-1.6%
COc1cc(C)ccc1C(=O)N1C[C@@H](CN2CCOCC2)[C@@H](CO)C1	-5.0%
Cc1ccc(C(=O)NC2CCN(c3cnn(C)c(=O)c3)CC2)s1	0.2%
CN(Cc1cc(C2CC2)n[nH]1)c1cc(C2CC(N)C2)nc(N)n1 (stereo not drawn)	-2.2%
COCCNC(=O)CC[C@]12CC[C@](C)(O)C[C@H]1C(C)(C)C[C@@H]2NCc1ccc(CO)o1	8.6%
Cc1ccccc1-c1nc2cnccn2c1NCCC(=O)N1CCCCC1	-1.3%
COc1ccc(F)c(CN2CCC(CO)(CN3CCCC3)CC2)c1	2.7%
O=C(CCN1CCCCO1)N1CCOC(CCCc2ccccc2)C1 (stereo not drawn)	6.8%
CC(C)=CCN1C[C@H](NC(=O)CCc2cccs2)C[C@H]1C(=O)NC(C)C	3.7%
CCn1cnnc1CC1CCCN(C(=O)Nc2ccc(C(=O)OC)cc2)C1 (stereo not drawn)	-9.2%
CCCN(CC1CCOC1)C(=O)c1cc(Cl)ccc1F (stereo not drawn)	-3.9%
COc1cc(CN2CCCC(c3[nH]ccc3C(N)=O)C2)ccc1F (stereo not drawn)	-12.5%
Cc1nc2ncnn2c(C)c1CCC(=O)NCC1CCOc2ccccc2C1 (stereo not drawn)	2.9%
CN1CCN(CCCNC(=O)CCC[C@@H]2[C@H]3CCCN4CCC[C@@H](CN2Cc2ccccc2)[C@@H]34)CC1	9.5%
COc1ccc(C[C@H](NC(=O)[C@@]2(O)C[C@@H](O)[C@H](O)[C@@H](NC(=O)c3cccnc3)C2)C(N)=O)cc1	-0.9%
Cn1cc(CN2CCc3nc(C(=O)NCC4CC4)oc3CC2)cn1	3.1%[70.6 µM]
CC(=O)N1C[C@@H](C(=O)NCCc2ccc(Cl)cc2)[C@H](c2nc(C)no2)C1	4.1%
O=C(C1CN(S(=O)(=O)c2cccnc2)CC12CCCCC2)N1CCc2ccccc2C1 (stereo not drawn)	3.0%
Cc1cccc(-n2nc(C)c(CCC(=O)N(C)C(C)C)c2Oc2ccccc2C)c1	u
Cc1cccc(C(=O)N2CCCCCC2c2nc(C)no2)c1 (stereo not drawn)	-0.9%
COc1ccc(C(=O)N2CCc3nc(C4CC4)nc(-c4ccc(Cl)cc4)c3CC2)cc1	-19.8%
CCN1c2cc(C(=O)Nc3ccc(N(C)C)cc3)ccc2C(=O)N2CCCCC21 (stereo not drawn)	-11.6%
Cc1nn(-c2ccc(C(C)C)cc2)c(C)c1[C@@H]1C=C[C@@H](NCc2ccccc2)C1	-12.6%[70.6 µM]
Cc1cc2cc(-c3c(C)noc3C)nc(Nc3ccc(Cl)cc3)c2o1	-18.4%[70.6 µM]
COc1ccc([C@@H](NC(=O)CN2CCc3ccccc3C2)C2CC(O)C2)cn1 (stereo partly drawn)	0.8%
O=C(NCc1ccccc1C(F)(F)F)c1cc2n(n1)CC(c1ccc3c(c1)OCO3)OC2 (stereo not drawn)	-15.8%
CN(C)C(C(=O)N1CCC(F)(F)CC1)c1ccccc1F (stereo not drawn)	3.5%
COc1cccc(F)c1-c1ccc2c(n1)c(=O)ncn2Cc1ccccc1	-0.9%[70.6 µM]
CN1[C@@H](CCC(=O)NCc2cccnc2)CNC(=O)[C@@H]2[C@H]1CCN2Cc1ccccc1	-0.7%[70.6 µM]
Cc1nc(C(=O)N2CCC(c3nnc(CN4CCCC4)n3C)CC2)cs1	0.8%
CO[C@H]1C(=O)N(C(C)C)[C@H]1C1CCN(C(=O)c2cccnc2C)CC1	-0.2%
COC(=O)N1CCc2nc(C(C)C)nc(-c3ccc(OC)cc3)c2CC1	-0.5%
O=C(C[C@H]1NC(=O)c2ccccc2NC1=O)NCCCc1nc2ccccc2[nH]1	3.4%
O=C(Nc1ccc(Oc2ccccc2)cc1)O[C@@H]1CO[C@H]2[C@@H]1OC[C@@H]2NC(=S)Nc1ccccc1	11.2µM*
Cc1cnc(C(=O)N2CCCCCCNC(=O)[C@@H]3C[C@@H](c4nc(-c5cccnc5)no4)C[C@@H]32)cn1	0.6%
CC(=O)NC[C@@H]1C=C(C)[C@H](Cc2nc3ccc(F)cc3[nH]2)C[C@H]1C(C)C	-15.2%[70.6 µM]
Cc1cc(C(=O)N[C@H]2CCOC[C@H]2C2CCOCC2)cc(C)n1	3.7%
O=C(NCc1ccncc1)c1cn(C2CN(C(=O)Nc3ccc4c(c3)OCCO4)C2)nn1	2.4%
COc1cccc(C(=O)N2CCC3(CC2)N=C(c2ccc(C)cc2)NO3)c1	-4.4%
COCCCNC(=O)C1Cn2cccc2C(=O)N1Cc1ccccc1 (stereo not drawn)	-15.6%
COC(=O)C1=C(C)NC(=O)NC1c1ccccc1 (stereo not drawn)	-2.7%
O=C1Nc2cnccc2C2(CCN(C(=O)c3ccccc3F)C2)O1 (stereo not drawn)	-1.6%[70.6 µM]
FC(F)(F)c1ccc2c(c1)nc1n2[C@@H](CNC2CCOCC2)COC1	5.1%[70.6 µM]
O=C(Cc1ccsc1)N1CCC2(CC1)N=C(c1ccc(Cl)cc1)NO2	-26.4%
The list goes on.
SMILES	hNpr1 antagonist
COc1ccc(NC(=O)N2CCC(c3noc(-c4cccnc4)n3)C2)cc1 (stereo not drawn)	2.6%
O=C(NCc1ccc(N2CCOCC2)cc1)c1cccc2c1CCN2C(=O)c1ccccc1	-18.9%
CN(C)C[C@@H]1CN(S(C)(=O)=O)C[C@H]1NC(=O)c1cccc(C#N)c1	-0.9%
O=C(c1ccc2nc(-c3ccc(F)cc3)cn2c1)N1C[C@@H]2CCCN[C@@H]2C1	2.5%
Cc1noc(C)c1[S+](=O)([O-])N1CCC2(Cc3ccccc3NC2=O)C1 (stereo not drawn)	7.2%
O=C(NCCCN1CCCCC1)c1cn2ccnc(-c3ccccc3)c2n1	0.8%
Cn1nccc1CN1CCn2c(nnc2-c2cccnc2)C1	-6.1%[70.6 µM]
O=C(O)[C@H]1C[C@H](C(=O)NCc2ccccn2)CN(Cc2ccccc2)C1	3.1%
O=C(Nc1nc2c(s1)CCCC2)C1CC(=O)N(c2n[nH]c3ccccc23)C1 (stereo not drawn)	-17.3%
O=C(c1nc2sccn2c1Br)N1CCC(N2CCCCC2)CC1	-0.5%
COc1cccc(CCC(=O)NCCC2CCN(C(=O)Nc3cccc(F)c3)CC2)c1	-3.8%
N#Cc1ccccc1C(=O)N1CCOC(c2ccc(Cl)c(Cl)c2)C1 (stereo not drawn)	u
O=C(NCc1ccc(C(F)(F)F)cc1F)[C@H]1CCC[C@@H](O)C1	-0.1%
O=C(Nc1cnc(-c2cccc(Cl)c2)nc1)c1ccc(F)cc1	-16.3%
CCc1nccn1CCNC(=O)C1CCN(C(=O)C2CCC2)CC1	1.0%
C[C@@]1(O)CCN(Cc2cn[nH]c2-c2ccccc2)C[C@H]1N1CCCC1	7.9%
O=C(NCC1CCOCC1)C1CC(=O)N(c2n[nH]c3ccccc23)C1 (stereo not drawn)	0.8%
COc1ccc(-c2ccc3ncc(Nc4cccc(N[S+](C)(=O)[O-])c4)n3n2)cc1OC	-1.9%
CC#CCn1cc2c3c(cccc31)[C@H](CC(C)C)N[C@H](C(=O)NCc1ccccc1)C2	-21.2%[70.6 µM]
c1ccc(-c2nnc3ccc(NCc4cccs4)nn23)nc1	4.9%[70.6 µM]
CCNC(=O)N1C[C@@H]2OCC(=O)N(CCOC)[C@@H]2C1	1.2%[70.6 µM]
O=S(=O)(c1ccccc1)N1CCC2(CC1)CC(OCC1CC1)CCO2 (stereo not drawn)	2.0%
Cc1nc(-c2c3n(c(=O)n(CC(=O)Nc4ccc(Cl)cc4F)c2=O)CCCC3)no1	0.0%
CNC(=O)[C@@H]1C[C@H](Oc2cccnc2)CN1S(=O)(=O)c1ccc2c(c1)CCC2	-2.8%
Cn1cc(C(NC(=O)c2cnc(N)nc2-c2ccccc2)C2CC(O)C2)cn1 (stereo not drawn)	5.0%
COc1cccc(-c2ncc3c(n2)OCCN(Cc2ccc(F)cc2F)C3=O)c1F	-9.6%[70.6 µM]
Cn1nc2n(c1=O)CCN(C(=O)NC1CCCCC1)CC2	1.7%
COc1cc(OC)c(OC)cc1CN1CCC(C)(c2noc(C3CCOCC3)n2)CC1	-5.1%
c1ccc(C2(c3nc(C4CCOC4)no3)CCCCC2)cc1 (stereo not drawn)	4.0%
COc1ccc(CNC(=O)N2CCC(c3noc(-c4cnccn4)n3)C2)cc1 (stereo not drawn)	-6.4%

Of the compounds above, these have a furan ring, fused or not:
SMILES	hNpr1 antagonist
COCCNC(=O)CC[C@]12CC[C@](C)(O)C[C@H]1C(C)(C)C[C@@H]2NCc1ccc(CO)o1	8.6%
Cc1cc2cc(-c3c(C)noc3C)nc(Nc3ccc(Cl)cc3)c2o1	-18.4%[70.6 µM]

The list continues.
SMILES	hNpr1 antagonist
CCN(Cc1ccncc1)C(=O)CCC1CCN(S(=O)(=O)c2ccccc2)CC1	-18.1%
O=C(CC1CCCN(c2cn[nH]c(=O)c2)C1)NC1CCN(Cc2ccccc2)CC1 (stereo not drawn)	2.1%
CCn1cnnc1-c1nn(C)c2c1CN(C(=O)c1nn(C)c3ccccc13)CC2	-0.2%
Cc1ccccc1CN1C[C@@H]2C(=O)N(Cc3ccc4c(c3)OCO4)C(=O)[C@@H]2C1	-1.4%
Cc1nn(C)cc1C(=O)N[C@@H]1CN(C2CCOCC2)C[C@H]1CN(C)C	-2.4%
COCC(=O)N1CCCC(C(=O)N2CCC(OCc3ccccc3)CC2)C1 (stereo not drawn)	3.4%
COCC(=O)N(C1CCOCC1)C1CCN(C(=O)Cc2cccc(OC)c2)CC1	6.8%
COc1ccc(CNC(=O)CC[C@H]2CNC(=O)[C@@H]3[C@@H](CCN3Cc3cccc(Cl)c3)N2C)cc1	-19.3%
Cc1ccc(C(=O)N2CCCC(c3nc(-c4ccccc4)no3)CCNC(=O)CC2)cn1 (stereo not drawn)	-2.1%
Cc1c(Cl)cccc1NC(=O)Cn1ccn2nc3c(c2c1=O)CCCC3	1.4%
CCC1=Nc2cc(C(=O)NCCC(C)C)ccc2Sc2ccc(Br)cc21	-1.5%
Cc1ccc(C(=O)N2CCCCCCNC(=O)[C@@H]3CCCC[C@@H]32)cn1	2.5%
O=C(c1ccc(CC2CCNCC2)cc1)N1CCCC1	0.9%
Cn1cccc1CN1CCC12Cc1ccccc1NC2=O (stereo not drawn)	5.6%[70.6 µM]
CCn1c(CO)nnc1C1CC(NC(=O)CN2CCOCC2)C1 (stereo not drawn)	3.1%

Random excerpt: seven records from the list.
SMILES	hNpr1 antagonist
Cc1ccc(C(=O)N2CCCC(c3nc(-c4ccccc4)no3)CCNC(=O)CC2)cn1 (stereo not drawn)	-2.1%
Cc1ccc(C(=O)N2CCCCCCNC(=O)[C@@H]3CCCC[C@@H]32)cn1	2.5%
Cc1nn(C)cc1C(=O)N[C@@H]1CN(C2CCOCC2)C[C@H]1CN(C)C	-2.4%
COc1ccc(CNC(=O)CC[C@H]2CNC(=O)[C@@H]3[C@@H](CCN3Cc3cccc(Cl)c3)N2C)cc1	-19.3%
O=C(CC1CCCN(c2cn[nH]c(=O)c2)C1)NC1CCN(Cc2ccccc2)CC1 (stereo not drawn)	2.1%
Cc1c(Cl)cccc1NC(=O)Cn1ccn2nc3c(c2c1=O)CCCC3	1.4%
CCn1c(CO)nnc1C1CC(NC(=O)CN2CCOCC2)C1 (stereo not drawn)	3.1%

Further compounds follow.
SMILES	hNpr1 antagonist
CCC(CO)N(Cc1ccc(C)s1)C(=O)c1cn(CCN)nn1 (stereo not drawn)	-2.8%
Cc1ccc(CNC(=O)Cn2cccc2-c2nc(-c3ccccc3)no2)cc1	-3.1%
CNc1cc(-c2ccccc2C(=O)N(C(C)C)C(C)C)nc(N)n1	3.7%
Cc1nnc(CN2CCC(N3CCCC(C(=O)NCCc4ccccc4)C3)CC2)o1 (stereo not drawn)	1.3%

The list is partial, so the mix of outcomes need not match the whole.
